Vaccinia mCherry: vaccinia inhibition (mCherry reporter); 0.63% of 310,000 active; Vaccinia virus mCherry reporter infection, fluorescence; about a quarter of the inactives have no number; Potency, µM (titrated, usually from 36.5 µM), inactives show at the top dose activity change, negative = inhibition, actives largely listed as inhibitors; active = well fitted inhibition curve with a large enough effect; inconclusive = small, poorly fitted or top-dose-only effect; inactive = no such curve, though single readings can be large or run the other way; tested in A549 cells; note: nearly all actives have a fitted effect of over 35% in size; inactives centre near -10
VACV Venus inh: vaccinia inhibition (Venus reporter); Vaccinia virus Venus reporter expression, fluorescence; Potency, µM (highest dose often 36.5 µM), for the others: at the top dose activity change, negative = inhibition, usual class: inhibitors; 0.46% of 330,000 active; AID 720580; active means well fitted inhibition curve with a large enough effect; inconclusive means small, poorly fitted or top-dose-only effect; inactive means no such curve, though single readings can be large or run the other way; tested in A549 cells; note: nearly all actives have a fitted effect of over 30% in size; inactives centre near -10
Numbers without * were called inactive; i = inactive; ? = inconclusive; / = not tested or not shown; & = joins results of further samples; [ ] = another dose, or the depositor's remark. % is set by controls: 0 for no effect and ±100 for the full control effect; potency is the fitted concentration of half-maximal effect.

SMILES	Vaccinia mCherry	VACV Venus inh
CCOc1ccc(S(=O)(=O)Nc2cccc(C(=O)NCC3CCCO3)c2)cc1 (stereo not drawn)	-11%	-7%
Cc1ccc(NC(=O)c2oc3ccc(S(=O)(=O)N4CCCCCC4)cc3c2C)c(C)c1	-24%	-7%
O=c1c2ccccc2c(C=NCCO)c(O)n1-c1ccccc1	-18%	-9%
CCOC(=O)COc1ccc(C2C(C(=O)OC)=C(C)NC3=C2C(=O)c2ccccc23)cc1Cl (stereo not drawn)	-9%	3%
COc1ccccc1CN(C)C(C)C(=O)Nc1cccc(C(C)=O)c1 (stereo not drawn)	11%	13%
Cc1ccc(S(=O)(=O)N2CCC(C(=O)Nc3nnc(-c4ccco4)s3)CC2)cc1	-15%	-11%
O=C(Nc1ccn(Cc2ccccc2F)n1)c1ccc(COc2ccc(Cl)cc2Cl)o1	?	?
CCOC(=O)CC1(C)Sc2ccccc2N1S(=O)(=O)c1ccc(C)cc1 (stereo not drawn)	?	-22%
CCCCNC1=CC(=O)C(NCCCC)=CC1=O	?	-6%
CCOC(=O)N1CCN(S(=O)(=O)c2ccc(-n3cnnn3)cc2)CC1	-19%	-8%
CCCC(=O)N1CCC1(C)C(=O)Nc1ccc(OC)c(OC)c1 (stereo not drawn)	i	5%
O=C(c1ccc(NS(=O)(=O)c2ccc3[nH]c(=O)[nH]c3c2)cc1)N1CCCC(C(F)(F)F)C1 (stereo not drawn)	i	-5%
Cc1cccc(NC(=O)c2ccc(N(Cc3ccccc3)S(C)(=O)=O)cc2)c1	-17%	2%
CCOC(=O)c1c(NC(=O)COC(=O)c2ccc(Cl)nc2)sc(C)c1C	?	?
CCOC(=O)C1CCN(c2nc3c(S(=O)(=O)c4ccc(Br)cc4)nnn3c3ccsc23)CC1	-14%	-18%
Cc1ccc(C)c(S(=O)(=O)N2CCCC2CNC(=O)C(=O)NCCN2CCOCC2)c1 (stereo not drawn)	i	-11%
Cc1cc(C)cc(N2C(=O)C3C4C=CC(C4)C3C2=O)c1 (stereo not drawn)	/	-11%
O=C(c1cc2nc(-c3ccco3)cc(C(F)(F)F)n2n1)N1CCN(c2ccccc2)CC1	-14%	-6%
Cc1ccc(NC(=O)CCC(=O)OCc2ccc(Br)cc2)cc1	-11%	-4%
CC(c1ccccc1)n1cc(C(=O)NCc2cccnc2)nn1 (stereo not drawn)	-6%	1%
COc1ccc(NC(=O)NCc2ccc(Cl)cc2)cc1	-13%	-21%
O=[N+]([O-])c1cc(-c2nnc(-c3ccccc3)o2)ccc1Oc1ccc(Cl)cc1	-9%	-8%
COc1ccc(-c2nc3ncccn3c2Nc2ccc3c(c2)OCCO3)cc1	?	-23%
OCc1ncccc1O	-15%	-5%
COc1ccc(-c2nc(CN3CCC(C(=O)NCc4ccccc4)CC3)c(C)o2)cc1OC	-1%	7%

Overlap with the part before: 2 entries; new compounds follow.
SMILES	Vaccinia mCherry	VACV Venus inh
OCc1ncccc1O	-15%	-5%
COc1ccc(-c2nc(CN3CCC(C(=O)NCc4ccccc4)CC3)c(C)o2)cc1OC	-1%	7%
O=C(Cn1nc(-c2ccccc2)c2ccccc2c1=O)Nc1ccc(F)cc1	i	0%
CCc1nn(CC(=O)NCc2ccccc2Cl)c(=O)c2cc3ccccc3n12	-10%	-6%
O=C(NCCOc1ccccc1)C(=O)NCC1CCCO1 (stereo not drawn)	-14%	4%
Cc1ccc(S(=O)(=O)/N=C2\CN(C)C(=O)N2C)cc1	-5%	-18%
CN(C)CCNC(=O)c1onc(CSc2ccc(F)c(F)c2)c1C(=O)NCCN(C)C	i	-13%
O=S(=O)(NCc1ccccn1)c1cc(Cl)ccc1Cl	i	-18%
CC(C)OCCCNC(=O)c1c2c(nc3ccccc13)C(=O)N(C1CCCCC1)C2	-13%	-18%
Cc1ncc2c(c1CNC(=O)c1ccc3c(c1)OCO3)CCN(C(=O)c1cccc(-n3cccn3)c1)C2	-8%	-2%
COc1ccc(CCN2C(=O)c3oc4cc(C)cc(C)c4c(=O)c3C2c2ccc(F)cc2)cc1OC (stereo not drawn)	31%[activator]	19%
CCN(C(=O)COC(=O)/C=C/c1ccco1)C1CCCCC1	-3%	6%
CC[C@]12c3[nH]c4ccccc4c3CCN1C(=O)C(CC(=O)NC/C=C(\C)CCC=C(C)C)C[C@@H]2C(=O)N1CCN(C(=O)c2ccco2)CC1 (stereo partly drawn)	-5%	-19%
Cc1cc(-c2nn(-c3ccccc3F)cc2CN2CCN(c3ccncc3)CC2)c(C)s1	-4%	-22%
Cn1cnnc1SCC(=O)NNC(=O)c1ccc([N+](=O)[O-])cc1	-4%	-4%
CCCCN(CCCC)c1ncnc2c1cnn2-c1cccc(C)c1	-10%	-5%
COc1ccc(OC)c(CN2C(=O)CCC2(C)c2nnnn2-c2c(C)cccc2C)c1 (stereo not drawn)	-4%	2%
COc1ccc(CN2CCC2(C)C(=O)Nc2cccc(NS(C)(=O)=O)c2)c2ccccc12 (stereo not drawn)	22%	-11%
Cc1cc(C)c2[nH]c(=O)c(CN(CC3CCCO3)C(=S)NCc3ccco3)cc2c1 (stereo not drawn)	-8%	1%
CC(Oc1ccccc1)C(=O)Nc1ccc(C(=O)OCc2cc(=O)n3nc(C4CC4)sc3n2)cc1 (stereo not drawn)	?	-2%
CC(C)OCCCNC(=O)CN1C(=O)c2cccnc2Sc2ccccc21	3%	-2%
O=C(c1ccccc1Oc1nnnn1-c1ccccc1)N1CCOCC1	-10%	-8%
O=C(N/N=C/c1ccccc1F)NC12CC3CC(CC(C3)C1)C2	-5%	-8%
CC(C)(CNc1ccc(S(=O)(=O)C(F)(F)F)cc1[N+](=O)[O-])N1CCOCC1	-12%	-14%
CC1Cc2nc(SCC(=O)Nc3ccc4c(c3)OCO4)n(CCc3ccccc3)c(=O)c2S1 (stereo not drawn)	1%	-18%
Cc1ccc(C)c(C2NC(=O)c3ccccc3N2)c1 (stereo not drawn)	?	?
CC(CN1CCC(n2nccc2NC(=O)c2ccccc2Cl)CC1)c1ccccc1 (stereo not drawn)	-12%	-7%

Additional compounds follow.
SMILES	Vaccinia mCherry	VACV Venus inh
CCc1ccccc1N1C(=O)N(Cc2cccc(Cl)c2)c2ccccc2S1(=O)=O	-1%	-1%
O=C(COC(=O)C1CCN(S(=O)(=O)c2cccs2)CC1)c1cc2ccccc2o1	-10%	-12%
CC(C)(C)NCCC(O)c1cc(C(F)(F)F)nc2c(C(F)(F)F)cccc12 (stereo not drawn)	?	?
CC(C)CCC1(CCO)C(=O)N=C(N)NC1=O (stereo not drawn)	-14%	2%
CN(C(=O)COC(=O)c1cccs1)c1c(N)n(Cc2ccccc2)c(=O)[nH]c1=O	-10%	-2%
CCCNC(=O)C1(C)CCCN(CC(=O)c2ccccc2OC)C1 (stereo not drawn)	-6%	0%
COc1ccc(CN2CCOCC2)cc1	/	5%
O=C(CN1C(=O)COc2ccc(S(=O)(=O)N3CCOCC3)cc21)NCc1ccco1	12%	3%
COc1ccc(NC(=O)Cc2nnc(SCC(=O)NC3CCCCC3C)n2C)cc1 (stereo not drawn)	i	0%
COc1ccccc1N1CCN(S(=O)(=O)CCNC(=O)c2cccc(F)c2)CC1	-13%	-18%
NC(=NCCc1ccccc1)NC(=O)c1cc(Cl)ccc1O	-11%	-4%
CCc1ccccc1Nc1nc(N)nc(COC(=O)CCNS(=O)(=O)c2ccccc2)n1	-6%	-5%
CN1C2CC(OC(=O)C(CO)c3ccccc3)CC1C(O)C2 (stereo not drawn)	-16%	-13%
COc1ccc(S(=O)(=O)N2CCCC2)cc1NC(=O)c1ccccc1F	-11%	-3%
CC(C)Cc1nn2c(=O)cc(COC(=O)c3cccc(NC(=O)c4ccccc4)c3)nc2s1	i	-13%
CS(=O)(=O)c1ccccc1-c1nc(-c2cccc(Cl)c2)no1	-10%	-10%
CC(C)CCC(O)(c1ccccc1)C(CN1CCOCC1)c1ccccc1 (stereo not drawn)	-9%	-16%
Cc1csc2nc(COC(=O)c3cccc(N(C)C)c3)cc(=O)n12	-1%	-18%
CC1(C)SC2C(NC(=O)C3(N)CCCCC3)C(=O)N2C1C(=O)O (stereo not drawn)	-16%	-9%
Cc1onc(-c2ccccc2Cl)c1C(=O)Nc1cccc2cccnc12	?	-24%
Cc1[nH]c2ccc(F)cc2c1CCN(Cc1ccncc1)C(=S)Nc1ccccc1	-13%	-12%
Cc1ccc(NC(=O)CN(C)C(=O)CSc2nnc(C)s2)cc1	-16%	-4%
O=C(CN1CCN(Cc2ccc(F)cc2Cl)C1=O)NCc1cccs1	i	-5%
COC(=O)COc1ccc(-n2cnnn2)cc1	-11%	-17%
CCCN1CCN(CCCNC(=O)c2ccc3c(c2)sc2nc(-c4ccc(OC)cc4)cn23)CC1	4.5µM*	?

A different layout for some results above.
mol | Vaccinia mCherry | VACV Venus inh
CCc1ccccc1N1C(=O)N(Cc2cccc(Cl)c2)c2ccccc2S1(=O)=O | -1% | -1%
O=C(COC(=O)C1CCN(S(=O)(=O)c2cccs2)CC1)c1cc2ccccc2o1 | -10% | -12%
CC(C)(C)NCCC(O)c1cc(C(F)(F)F)nc2c(C(F)(F)F)cccc12 (stereo not drawn) | ? | ?
CC(C)CCC1(CCO)C(=O)N=C(N)NC1=O (stereo not drawn) | -14% | 2%
CN(C(=O)COC(=O)c1cccs1)c1c(N)n(Cc2ccccc2)c(=O)[nH]c1=O | -10% | -2%
CCCNC(=O)C1(C)CCCN(CC(=O)c2ccccc2OC)C1 (stereo not drawn) | -6% | 0%
COc1ccc(CN2CCOCC2)cc1 | / | 5%
O=C(CN1C(=O)COc2ccc(S(=O)(=O)N3CCOCC3)cc21)NCc1ccco1 | 12% | 3%
COc1ccc(NC(=O)Cc2nnc(SCC(=O)NC3CCCCC3C)n2C)cc1 (stereo not drawn) | i | 0%
COc1ccccc1N1CCN(S(=O)(=O)CCNC(=O)c2cccc(F)c2)CC1 | -13% | -18%
NC(=NCCc1ccccc1)NC(=O)c1cc(Cl)ccc1O | -11% | -4%
CCc1ccccc1Nc1nc(N)nc(COC(=O)CCNS(=O)(=O)c2ccccc2)n1 | -6% | -5%
CN1C2CC(OC(=O)C(CO)c3ccccc3)CC1C(O)C2 (stereo not drawn) | -16% | -13%
COc1ccc(S(=O)(=O)N2CCCC2)cc1NC(=O)c1ccccc1F | -11% | -3%
CC(C)Cc1nn2c(=O)cc(COC(=O)c3cccc(NC(=O)c4ccccc4)c3)nc2s1 | i | -13%
CS(=O)(=O)c1ccccc1-c1nc(-c2cccc(Cl)c2)no1 | -10% | -10%

(more compounds)
SMILES	Vaccinia mCherry	VACV Venus inh
Cc1ccc(C)c(NC(=O)C2CCN(C(=O)c3cccs3)CC2)c1	?	-3%
O=c1cc(CN2CCCCCCC2)c2ccccc2o1	29%	11%
Cc1cc(NC(=O)c2ccccc2C)n(-c2cccc(F)c2)n1	-11%	-16%
Cc1cccc(C)c1-n1nnnc1C(c1ccnc2ccccc12)N(C)Cc1ccccc1 (stereo not drawn)	i	-7%
COc1ccc(N(C)C(=O)Cn2cc(S(=O)(=O)N3CCN(c4ccccc4F)CC3)c3ccccc3c2=O)c(OC)c1	-20%	-11%
CCc1nc(N2CCN(S(=O)(=O)c3ccc(Br)cc3)CC2)c2c(C)c(C)sc2n1	0%	-4%
COC(=O)N1CCCC(c2cc(C(=O)Nc3ccccc3Cl)no2)C1 (stereo not drawn)	-12%	9%
O=C(COC(=O)CCc1c[nH]c(=O)[nH]1)Nc1cccc(Cl)c1	i	1%
O=C(COC(=O)c1cccc(Br)c1)NCCC1=CCCCC1	i	-8%
Cc1ccccc1-c1noc(CSc2nc3ccccc3[nH]2)n1	-10%	-11%
OC[C@@H]1[C@@H](c2ccccc2)C(c2cccc(Cl)c2)=NN1c1ccccc1	?	-27%
COc1ccccc1NC(=O)Cn1cc(C(=O)C(=O)N2CCOCC2)c2ccccc21	?	?
COc1ccc(-c2nc3sc(CCNC(=O)C(=O)Nc4ccc(C)c(F)c4)c(C)n3n2)cc1	-3%	-7%
CCc1cc(C(=O)N2CCCC(C(=O)c3ccc(Cl)cc3)C2)no1 (stereo not drawn)	-5%	-3%
COc1ccc(C(CNC(=O)c2ccc(OCc3ccccc3)cc2)N2CCOCC2)cc1 (stereo not drawn)	-13%	-9%
O=C(NCc1ccccc1)c1ccc2c(c1)N(Cc1ccccc1F)C(=O)c1ccccc1S2=O (stereo not drawn)	-14%	-7%
O=C1CCC[C@@H]2C[C@@]3(C[C@@H]4CCN1[C@H]24)Nc1cc(Cl)c(Cl)cc1NC3=NCc1ccccc1	-12%&-9%	?
Cc1ccsc1C(=O)C1CCCN(Cc2cn(C)nc2C)C1 (stereo not drawn)	-3%	4%
O=[N+]([O-])c1ccc(C2=Nn3cnnc3SC2)cc1	i	-12%
O=C(c1ccc(Cl)c(S(=O)(=O)NCc2ccco2)c1)N1CCN(c2ccccc2F)CC1	-24%	?
Cn1cc(C[C@H](NC(=O)OC(C)(C)C)C(=O)N[C@H](CO)Cc2ccccc2)c2ccccc21	-4%	-8%
COC(=O)C1CCN(C(=O)COc2ccc(N(C)S(=O)(=O)c3ccc(C)cc3)cc2)CC1	-16%	-14%
OCCNc1ncnc2c1nnn2Cc1ccccc1	-5%	-17%
CCOP(=O)(OCC)c1nc(-c2cccc3ccccc23)oc1NCc1ccccc1	-21%	-21%
COc1ccc(OC)c(-n2c(-c3cccc(O)c3)n[nH]c2=S)c1	-14%	-15%
COc1ccccc1CCNC(=O)C(=O)NCC1OCCN1S(=O)(=O)c1cccs1 (stereo not drawn)	-8%	-17%
COc1ccc(NC(C)=O)cc1NC(=O)c1ccc(C#N)cc1	4%	-4%
Cc1ccc(/C=N/NC(=O)Cn2nnc(N)n2)o1	i	-19%
CC(C)CCN1C(=O)c2ccccc2C1c1nnnn1Cc1ccccc1 (stereo not drawn)	-3%	-10%
COc1ccc(OC)c(NC(=O)CN(C)CC(=O)Nc2ccccc2Br)c1	-8%	-12%
